Screening results: PubChem, National Center for Advancing Translational Sciences (NCATS)
VDR inhibitor – blocks the human vitamin D receptor. P11473. VDR-SRC2-3 peptide fluorescence polarization, 2 h. Potency, µM, for inactives: max response, negative = inhibition, actives largely listed as inhibitors. 400,000 tested, 0.93% active. AID 504847; active means well fitted inhibition curve with a large enough effect; inconclusive means small, poorly fitted or top-dose-only effect, or another doubt; inactive means no such curve, though single readings can be large or run the other way; further: series mostly up to about 120 µM
Target sequence (P11473 whole entry, looked up): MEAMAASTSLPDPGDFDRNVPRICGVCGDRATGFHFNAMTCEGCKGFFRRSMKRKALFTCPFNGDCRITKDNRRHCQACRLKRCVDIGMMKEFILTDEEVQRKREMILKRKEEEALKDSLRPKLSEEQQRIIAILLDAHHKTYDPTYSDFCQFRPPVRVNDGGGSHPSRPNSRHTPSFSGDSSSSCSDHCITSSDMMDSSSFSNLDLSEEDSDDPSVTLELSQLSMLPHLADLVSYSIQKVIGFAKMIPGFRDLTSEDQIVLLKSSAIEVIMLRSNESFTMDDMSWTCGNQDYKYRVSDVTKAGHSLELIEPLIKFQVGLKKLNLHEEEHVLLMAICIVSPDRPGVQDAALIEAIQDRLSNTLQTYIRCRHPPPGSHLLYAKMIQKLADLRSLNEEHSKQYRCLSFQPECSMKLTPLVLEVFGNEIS
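Compounds are added to VDR with labelled SRC2-3 coactivator peptide and held 2 h at room temperature. Inhibition of the VDR–peptide interaction is then read as a change in fluorescence polarization.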
Active calls of the source: *; ? = inconclusive; & = joins results of further samples. On the % scale 0 is the no-effect control and ±100 the full control effect; potency means the concentration at half of the fitted maximal effect. These rows are one share of the data. The share of hits here may be higher or lower than overall.

VDR inhibitor	smiles
8%	Cn1c(SCC(=O)c2ccc(-c3ccccc3)cc2)nnc1-c1ccco1
-7%	N#CC1=C(Nc2ccccc2)SC=C(c2ccccc2)N=C1N1CCOCC1
-2%	CC(C)NC(=O)NC(=O)COC(=O)C1CCCN1C(=O)c1cccs1 (configuration not stated)
-7%	CCCSc1n[nH]c(NC(C)=O)n1
-5%	CCS(=O)(=O)N1CCC(NC(=O)C(Cc2cc(OC)ccc2OC)NC(C)=O)CC1 (configuration not stated)
7%	O=C(CSc1nc(-c2cccs2)nc2cc(=O)[nH]n12)Nc1ccc(F)cc1
-1%	COc1ccc(-c2nnc(-c3ccc4ccccc4c3)o2)cc1
1%	COc1cc2[nH]c(=O)n(Cc3ccc(C(=O)NCCCN4CCC(C)CC4)cc3)c(=O)c2cc1OC
5%	Cn1c(=O)c2c(nc(NCc3ccco3)n2C)n(C)c1=O
4%	CCNC(=O)c1ccc(NS(=O)(=O)c2ccccc2)cc1
6%	O=C(NCC(=O)N1CCN(C(c2ccccc2)c2ccccc2)CC1)c1ccccc1F
17%	Cc1cc(C(=O)COc2ccc(Br)cc2F)c(C)n1C1CC1
-16%	CCCc1cc(C(=O)Nc2cccc(Cl)c2C)no1
18%&2%	CCCCNC(=O)CCn1c(=O)c2cccn2c2ccc(F)cc21
10%&10%	COc1cc(O)c(C(CC(=O)N2CCCC2)c2ccc(N(C)C)cc2)c(OC)c1 (configuration not stated)
-9%	O=C(Nc1nc2ccc(S(=O)(=O)N3CCOCC3)cc2s1)c1cccs1
27%	COc1ccc(CNC(=O)C(Cc2ccccc2)n2cccc2)cc1 (configuration not stated)
2%	CCC(=O)N1CCCc2cc(S(=O)(=O)N3CCC(C(=O)Nc4cccc(Cl)c4)CC3)ccc21
4%	CC(=O)CC(=O)NC1C2CC3CC(C2)CC1C3 (configuration not stated)
-13%	C=CCNC1=C2C[C@@H](C)C[C@H](OC)[C@H](O)[C@@H](C)/C=C(\C)[C@H](OC(N)=O)[C@@H](OC)/C=C/C=C(\C)C(=O)NC(=CC1=O)C2=O
4%	CCC(=O)Oc1c(S(=O)(=O)c2ccc(C)cc2)c(C)nn1C(C)(C)C
0%	O=C(NCc1ccc(Cl)cc1)C1=Cc2cc(Br)ccc2OC1
17%	CCCCOc1ccc(C(=O)Nc2ccc3c(c2)OCO3)cc1
-10%	CN(CC(=O)Nc1cccc(F)c1)C(=O)c1cc(S(=O)(=O)N2CCCCC2)ccc1N1CCOCC1
-1%	O=C(CCn1c(=O)sc2ccccc21)Nc1nc2ccccc2s1
9%	O=C(NC(c1ccccc1)c1ccccc1)C1CCCO1 (configuration not stated)
-2%	Cc1cc(C)c(OCCN2C(=O)NC(C)(C)C2=O)c(Cl)c1
9%	Cc1ccc(C(=O)NCC(=O)OC(C)C(=O)Nc2ccccc2[N+](=O)[O-])s1 (configuration not stated)
-10%	COC(=O)c1ccc(-c2cc(CC3(C(=O)OC)CCN(C(=O)OC(C)(C)C)CC3)on2)cc1
9%	O=C(Cn1cccc1C(=O)c1ccccc1)NCc1ccc2c(c1)OCO2
2%	Cc1nncn1-c1ccc(C(=O)Nc2cc(F)ccc2F)cc1
-12%	COc1ccc(OC)c(NC(=O)NNS(=O)(=O)c2ccc(C)cc2C)c1
9%	CCc1ccc2[nH]c(=O)c(CN(CCN3CCCC3)C(=O)NC3CCCCC3)cc2c1
-2%	COc1ccc(CCNC(=O)c2ccc([N+](=O)[O-])cc2Cl)cc1OC
0%	O=C(c1cccs1)N(Cc1ccco1)C1CCS(=O)(=O)C1 (configuration not stated)
4%	Cc1ccc(-c2csc3ncn(CC(=O)O)c(=O)c23)cc1C
19%	Cc1cc(C)c(S(=O)(=O)NCc2cccnc2)c(C)c1
-1%	Cc1onc(-c2ccccc2Cl)c1C(=O)NNC(=O)c1ccccc1F
-5%	O=C(Nc1ccccc1N1CCCCC1)c1ccc(-c2cccc(Cl)c2)o1
5%	C=CCC(C)(O)c1ccsc1 (configuration not stated)
-1%	COc1cc(-c2nnc(-c3ccccc3)o2)cc(OC)c1OC
20%	COc1cc(CN2CCNC(=O)C2CC(=O)NCCc2ncccc2C)cc(OC)c1 (configuration not stated)
-7%	Cc1ccc2nc(SCC(=O)N3CCN(c4ccccc4)CC3)[nH]c2c1
-15%	CC1(C)C(=O)OC(/C=C/c2cccc([N+](=O)[O-])c2)C(C)(C)C1=O (configuration not stated)
-3%	N#Cc1cc2ccccc2nc1N
-9%	O=C(CN1CCC(NC(=O)Nc2ccccc2-c2ccccc2)CC1)NCc1ccco1
1%	CN(C)C(=O)c1ccc(-c2nc(N3CCOCC3)c3ccccc3n2)cc1
-10%	COc1cc(/C=N/Nc2ccccc2)ccc1OC(=O)c1cccs1
-11%	CC(C)(C)NC(=O)CN(CCN1CCOCC1)C(=O)CNS(=O)(=O)c1ccccc1
15%	O=C(Nc1ccccc1N1CCN(C(=O)c2ccccc2)CC1)c1ccc2c(c1)OCO2
-6%	Cc1ccc(S(=O)(=O)C2(C(=O)N(C)C3CCCCC3)CC2)cc1
15%	Cc1ccc(S(=O)(=O)/N=C(/Nc2cccc(O)c2)c2ccccc2)cc1
2%	Nc1ncnc2c1nc(SCCO)n2Cc1ccccc1
-5%	CCOC(=O)c1[nH]c(C)c(C(=O)NC2CCN(C(=O)OCC)CC2)c1C
1%	c1ccc(CNc2ncnc3sccc23)cc1
-2%	CCCCN1C(C(=O)Nc2cc(C)on2)=C(O)c2ccccc2S1(=O)=O
-3%	CC(=O)N1CCc2cc(S(=O)(=O)NC(CC(C)C)C(=O)Nc3cc(C)cc(C)c3)ccc21 (configuration not stated)
-13%	COc1ccc(NC(=S)N/N=C2\CC(C)(C)Oc3ccc(OC)cc32)cc1
11%	CCN(CC)C(=O)CSc1nnc(-c2ccc(S(=O)(=O)N3CCOCC3)cc2)n1C
-22%	COc1ccc(OC)c(-n2c(SCC(=O)NCc3ccco3)nnc2-c2c[nH]c3ccccc23)c1

Later entries:
VDR inhibitor	smiles
-1%	CC(C)c1ccccc1NC(=S)NCc1nc2ccccc2[nH]1
-5%	CCOC(=O)[C@H]1[C@H]2COc3ccc(Br)cc3[C@@H]2N2C(=O)N(c3ccccc3)C(=O)[C@@]12C
-17%	O=[N+]([O-])c1ccc(N/N=C2\CC3CC=CC23)c([N+](=O)[O-])c1 (configuration not stated)
-7%	Cc1cc(SCC(=O)OCC(=O)NCC2CCCO2)c(C)cc1Br (configuration not stated)
?	O=C(Cc1ccc(Br)c2ccccc12)N/N=C/c1ccccn1
9%	COc1cc(S(=O)(=O)NCCc2ccc3c(c2)OCO3)ccc1-n1cnnn1
5%&7%	COc1cc2nc(Nc3ccc(C)c(C)c3)nc(N)c2cc1OC
-10%	COc1cccc2cc(C(=O)N3CCc4ccccc4C3)c(=O)oc12
-15%	CSc1ccc(S(=O)(=O)Nc2c(C)n(C)n(-c3ccccc3)c2=O)cc1
20%	O=C(Nc1ccccn1)c1cc(-c2ccc(Cl)s2)nc2ccccc12
22µM*	O=C(CCN1CCOCC1)c1ccc(Br)cc1
0%	O=C(CSc1ncnc2c1cnn2-c1ccc(Cl)cc1)NCc1ccc2c(c1)OCO2
1%&3%	CN(Cc1ccc(F)cc1)S(=O)(=O)c1nnc(NC(=O)c2ccccc2)s1
3%	CCOC(=O)CSc1nc2sc3c(c2c(=O)n1-c1ccccc1)CC(C(C)C)OC3 (configuration not stated)
6%	O=[N+]([O-])c1ccccc1CNC(Cc1ccccc1)c1ccccc1 (configuration not stated)
-2%	Cc1ccc(C)c(N2CCN(C(=O)c3cc(S(=O)(=O)N4CCCCCC4)cn3C)CC2)c1
-8%	Cn1c(=O)c2nc3ccccc3nc2n(C)c1=O
3%	CN1CCN(NC(=O)c2cccc(F)c2)CC1
-16%	COc1cccc(C2(O)CCN(CC(=O)NCC3CC3)CC2)c1
28%	CC(C)c1nnc(NC(=O)CCC(=O)NCc2ccco2)s1
-6%	Cc1ccccc1C(=O)Nc1ccc(S(=O)(=O)N2CCC(c3nc4ccccc4s3)CC2)cc1
-20%	COCCOc1ccc(C(F)(F)F)cc1N
14%	Cc1cc(C)cc(OCC(=O)O/N=C(\N)c2cccnc2)c1
-12%	COc1cc(/C=N/NC(=O)c2sc(N)c(C#N)c2C)cc(Br)c1O
-2%	N#Cc1cccc(-c2nc3cnc(Nc4ccccc4)nc3n(C[C@H]3CCCO3)c2=O)c1
-6%	CC(Sc1ncnc2ccccc12)C(=O)Nc1ccc2c(c1)OCCO2 (configuration not stated)
0%	COc1cccc2c(=O)n(CC(=O)NCCc3ccccc3)ccc12
-5%	O=C(c1cc2ccccc2oc1=O)N1CCN(C(=O)C2CCCO2)CC1 (configuration not stated)
-1%	CC1CN(C(=O)COC(=O)[C@@H]2CC(O)CN2S(=O)(=O)c2ccc3c(c2)OCCO3)CC(C)O1 (some centres not stated)
3%	O=C(Nc1ccc(N2CCOCC2)c(F)c1)c1ccncc1
10%	COc1ccc(C(=O)NNC(=S)NC(=O)C(C)(C)C)cc1
2%	COc1ccc(-c2cc(C)no2)cc1S(=O)(=O)N(C)Cc1ccco1
15%	COc1cc(C)ccc1OCC(=O)OCC(=O)c1cc(C)n(CC2CCCO2)c1C (configuration not stated)
-4%	Cc1nn(C)c(Cl)c1CN1CCCC(CO)(Cc2ccccc2)C1 (configuration not stated)
-3%	O=C(CCn1c(=O)c2cccn2c2cccnc21)Nc1ccccc1C(F)(F)F
9%	O=c1[nH]c2ccsc2c(=O)n1-c1ccc(F)cc1
-10%	Cc1csc(NC(=O)Cc2c(F)cccc2Cl)n1
-4%	O=C1c2ccccc2C(Nc2ccc(S(=O)(=O)N3CCOCC3)cc2)N1Cc1ccco1 (configuration not stated)
-2%	COc1ccc(CCNC(=O)c2cc(-c3cc(C)ccc3O)n[nH]2)cc1OC
1%	COc1ccc(Nc2nc3nonc3nc2N2CCCCC2)cc1
10%	CC(C)CCN(C(=O)c1ccc(N2CCCC2=O)cc1)c1c(N)n(Cc2ccccc2)c(=O)[nH]c1=O
-10%	COc1cccc(C(O)c2nc3ccccc3n2C)c1 (configuration not stated)
-19%	O=C(c1cc[n+]([O-])cc1)N1CCCC(N2CCN(c3cccc(C(F)(F)F)c3)CC2)C1 (configuration not stated)
28%	COC(=O)c1ccc(NC(=O)CSc2nncn2-c2cccnc2)cc1
19%	Cc1ccc(C23CC4CC(CC(NC(=O)NN)(C4)C2)C3)cc1
-5%	O=C(COC(=O)c1ccco1)c1ccc(F)cc1
24%	O=C(NCc1ccccc1F)C1CCN(Cc2cc3ccccc3n2Cc2cccc(Cl)c2)CC1
4%	Cc1ccc(NC(=O)C(C)N2CCCC2)cc1Cl (configuration not stated)
9%	CCOC(=O)c1c(C)[nH]c(C)c1S(=O)(=O)NCC(=O)Nc1cc(Cl)ccc1OC
-15%	CC(=O)c1ccc(OCc2cc(C(=O)N3CCCCC3c3cccnc3)no2)cc1 (configuration not stated)
-18%	Cc1onc(-c2ccccc2)c1C(=O)N/N=C/c1cccc(O)c1
5%	COc1ccc(C(CNC(=O)Cc2c(F)cccc2Cl)N2CCCCC2)cc1 (configuration not stated)
8%	Cc1cccc(CS(=O)(=O)CC2Nc3ccc(C(=O)NCc4ccccc4Cl)cc3NC2=O)c1 (configuration not stated)
-5%	CN(C)S(=O)(=O)c1cccc(C(=O)OCC(=O)N2CCCC2=O)c1
0%	COc1ccc2[nH]c3ccc(OC)cc3c2c1
-3%	O=C(COC(=O)c1n[nH]c2ccccc12)c1cc(F)ccc1F
-19%	CCOC(=O)COc1cccc2c(=O)n(CC(=O)N3CCCc4ccccc43)ccc12
9%	COc1ccc(Cl)cc1NC(=O)Cc1coc2c(C)c(C)ccc12
-5%	COc1ccc(CCC(=O)OCC(=O)Nc2c(C)n(C)n(-c3ccccc3)c2=O)cc1
-15%	COc1cc(C(=O)NCCCn2ccnc2)cc(OC)c1OC
16%	Cc1ccc(-c2ccc(/C=N/NC(=S)Nc3ccccc3)o2)cc1[N+](=O)[O-]
5%	N#CC(c1nc2ccccc2nc1N1CCCC1)S(=O)(=O)c1ccccc1 (configuration not stated)

In the list so far, 13 contain an aryl thioether with sulfur outside any ring.
VDR inhibitor	smiles
8%	Cn1c(SCC(=O)c2ccc(-c3ccccc3)cc2)nnc1-c1ccco1
-7%	CCCSc1n[nH]c(NC(C)=O)n1
7%	O=C(CSc1nc(-c2cccs2)nc2cc(=O)[nH]n12)Nc1ccc(F)cc1
-7%	Cc1ccc2nc(SCC(=O)N3CCN(c4ccccc4)CC3)[nH]c2c1
2%	Nc1ncnc2c1nc(SCCO)n2Cc1ccccc1
11%	CCN(CC)C(=O)CSc1nnc(-c2ccc(S(=O)(=O)N3CCOCC3)cc2)n1C
-22%	COc1ccc(OC)c(-n2c(SCC(=O)NCc3ccco3)nnc2-c2c[nH]c3ccccc23)c1
-7%	Cc1cc(SCC(=O)OCC(=O)NCC2CCCO2)c(C)cc1Br (configuration not stated)
-15%	CSc1ccc(S(=O)(=O)Nc2c(C)n(C)n(-c3ccccc3)c2=O)cc1
0%	O=C(CSc1ncnc2c1cnn2-c1ccc(Cl)cc1)NCc1ccc2c(c1)OCO2
3%	CCOC(=O)CSc1nc2sc3c(c2c(=O)n1-c1ccccc1)CC(C(C)C)OC3 (configuration not stated)
-6%	CC(Sc1ncnc2ccccc12)C(=O)Nc1ccc2c(c1)OCCO2 (configuration not stated)
28%	COC(=O)c1ccc(NC(=O)CSc2nncn2-c2cccnc2)cc1

4 successive records from above, for reference:
VDR inhibitor	smiles
10%	CC(C)CCN(C(=O)c1ccc(N2CCCC2=O)cc1)c1c(N)n(Cc2ccccc2)c(=O)[nH]c1=O
-10%	COc1cccc(C(O)c2nc3ccccc3n2C)c1 (configuration not stated)
-19%	O=C(c1cc[n+]([O-])cc1)N1CCCC(N2CCN(c3cccc(C(F)(F)F)c3)CC2)C1 (configuration not stated)
28%	COC(=O)c1ccc(NC(=O)CSc2nncn2-c2cccnc2)cc1
